# CtBP-E1A blk = CtBP/E1A binding inhibition; AlphaScreen GST-E1A/His-CtBP binding, 1536-well; hits give low values; control for the full effect not named in the record; activity change, % (no concentration beside the values); 340,000 compounds, 0.49% hits; in the data active means activity change below about -65%; inconclusive means about -30% to -65%; inactive means above about -30%; further: on the % scale 0 is the no-effect control and ±100 the full control effect
#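 Homogeneous bead-based format: GST-tagged E1A captured on glutathione donor beads, His-tagged CtBP on nickel acceptor beads; compounds precede bead addition by 2 h at 37 °C.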
# PINK1 modulator = modulators of PINK1 expression | PINK1 immunofluorescence, high-content cytometry, 24 h | Potency, µM (highest dose often 76.6 µM), for inactives: top-dose activation (PINK1 increase), actives largely listed as activators | 410,000 compounds, 0.2% hits | AID 624263; active = well fitted activation curve with a large enough effect; inconclusive = small, poorly fitted or top-dose-only effect; inactive = flat fitted curve, though single readings scatter; cell line not stated here;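 further: potency means the concentration at half of the fitted maximal effect; % of control where 0% means no effect; nearly all actives have a fitted effect of over 65% in size; a mitochondrial uncoupler was the plate control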
#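 A stable cell line was treated with compounds at 5 concentrations for 24 hours, with CCCP as control. PINK1 levels and mitochondrial localization were measured by immunofluorescence with mitochondrial, cell and nuclear markers after fixation, read by laser-scanning cytometry.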
# Six1-Eya2 blk = inhibitors of human Six1/Eya2 interaction | AlphaScreen GST-Six1/His-Eya2 binding, biochemical; hits give low values; control for the full effect not named in the record | activity change, % (concentration not given with the values) | 360,000 compounds, 0.56% hits; in the data active = activity change below about -65%; inconclusive = about -30% to -65%; inactive = above about -30%; further: on the % scale 0 is the no-effect control and ±100 the full control effect
#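 AlphaScreen luminescence read after one hour at 37 °C in darkness. Pin-transferred compounds met GST-Six1 and His-Eya2 protein (5X stock 250 nM/500 nM) plus glutathione donor and Ni-chelate acceptor beads (5X, 50 ug/mL).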
# D2 agonist = human D2 receptor agonism in beta-arrestin assay. P14416. DiscoveRx PathHunter D2 beta-arrestin, luminescence, 90 min; 100% = 57 uM dopamine signal. activation, % (test concentration not listed). 360,000 compounds, 0.084% hits. AID 624465; in the data active = activation above about 40%; inconclusive = about 15% to 40%; inactive = below about 15%; further: compound concentration not given in the record; the text of the record calls up to 30% inactive
# Target sequence (P14416 whole entry, looked up): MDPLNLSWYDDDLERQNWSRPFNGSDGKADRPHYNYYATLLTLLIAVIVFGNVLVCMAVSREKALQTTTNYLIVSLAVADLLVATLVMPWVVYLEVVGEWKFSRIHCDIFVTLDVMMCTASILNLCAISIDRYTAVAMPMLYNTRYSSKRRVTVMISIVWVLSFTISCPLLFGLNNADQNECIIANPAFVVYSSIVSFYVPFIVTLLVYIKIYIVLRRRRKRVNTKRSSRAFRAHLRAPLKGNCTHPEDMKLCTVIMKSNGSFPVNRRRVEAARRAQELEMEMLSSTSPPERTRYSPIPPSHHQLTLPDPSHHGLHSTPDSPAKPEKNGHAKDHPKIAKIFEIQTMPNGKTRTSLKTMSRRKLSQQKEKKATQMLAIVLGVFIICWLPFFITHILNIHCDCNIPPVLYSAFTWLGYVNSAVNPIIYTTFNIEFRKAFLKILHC
#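 DiscoveRx PathHunter D2 beta-arrestin cells (2,100/well) attached overnight, then compound-stimulated 90 min at 37 C in HBSS/10 mM HEPES/0.1% Tween-20 buffer; beta-galactosidase complementation read by luminescence after 1 h at ambient temperature. Dopamine 57 uM final (EC100) as control.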
# TRPML1 agonist = activates the human TRPML1 channel; TRPML1-expressing cells, Ca2+ dye fluorescence, FDSS; host cell line not named in the record; reference of the full effect not given here; activation, % (concentration not given with the values); 410,000 compounds, 0.12% hits; in the data active = activation above about 50%; inconclusive = about 30% to 50%; inactive = below about 30%; further: 0% is about no effect; the text of the record puts the active cut at 80%
# Target sequence (Q9GZU1 whole entry, looked up): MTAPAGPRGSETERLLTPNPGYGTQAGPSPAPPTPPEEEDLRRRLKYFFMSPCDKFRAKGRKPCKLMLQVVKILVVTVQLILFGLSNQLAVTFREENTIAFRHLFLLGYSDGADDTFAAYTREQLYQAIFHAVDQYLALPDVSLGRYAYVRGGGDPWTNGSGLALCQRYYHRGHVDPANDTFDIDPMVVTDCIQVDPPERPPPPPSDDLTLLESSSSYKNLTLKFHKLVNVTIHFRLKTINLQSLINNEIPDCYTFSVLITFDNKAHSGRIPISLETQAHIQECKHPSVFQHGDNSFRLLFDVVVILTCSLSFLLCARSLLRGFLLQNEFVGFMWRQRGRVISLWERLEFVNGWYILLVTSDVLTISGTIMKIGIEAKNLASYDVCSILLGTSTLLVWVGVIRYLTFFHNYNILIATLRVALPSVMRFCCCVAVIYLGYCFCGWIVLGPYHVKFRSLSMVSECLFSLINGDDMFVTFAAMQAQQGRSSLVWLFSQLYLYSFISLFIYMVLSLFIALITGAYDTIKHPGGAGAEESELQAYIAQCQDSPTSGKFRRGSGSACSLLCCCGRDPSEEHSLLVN
#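 Calcium fluorescence on an FDSS kinetic reader gave the read-out. Tet-induced TRPML1-DL cells were plated overnight, dye-loaded (Ca8 with quencher, 45-90 min, room temperature, dark), then read 110 s after compound addition, and again 110 s after 4uM final 54-4 (EC80).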
# TRPML1 blocker = inhibitors of human TRPML1 channel | Q9GZU1 | TRPML1-inducible cells, Ca2+ dye fluorescence, FDSS; hits give low values; inhibition of EC80 agonist-evoked calcium signal | activity change, negative = inhibition, % (test concentration not listed) | 390,000 compounds, 0.02% hits | AID 624415; in the data active means activity change below about -50%; inconclusive means about -30% to -50%; inactive means above about -30%;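 further: stimulus is agonist 54-4 at its EC80 concentration; on the % scale 0 is the no-effect control and ±100 the full control effect; compound concentration not given in the record; the text of the record puts the active cut at -80%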
#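 Tet-induced TRPML1-DL cells loaded with Ca8 no-wash calcium dye were read kinetically on FDSS. Compound addition was followed by EC80 agonist 54-4 (4 uM final); inhibition was read over 110 s.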
# Numbers without * were called inactive; ? = inconclusive; nt = no result given; [ ] = dose if it differs, or a comment.
1: CC(C)Sc1nc2c(c(=O)[nH]1)C(c1cccs1)C1=C(CC(C)(C)CC1=O)N2 (configuration not stated)
2: COc1cc2c(cc1OC)C1(CCCC1)C(N)=C2C#N
3: CCn1nc(C)c(Br)c1-c1nc(-c2ccc(C)cc2)no1
4: COc1ccc(CN(C)C(=O)c2ccccc2OCc2c(C)noc2C)cc1OC
5: COc1ccc(OC)c(CN2CCN(C(=O)c3cccc(S(=O)(=O)Nc4ccc(C)cc4)c3)CC2)c1
6: O=C(COc1ccc(-c2nnco2)cc1)NC1CCCc2ccccc21 (configuration not stated)
7: Cc1c2cnn(CC(=O)NCc3ccc(F)cc3)c(=O)c2c(C)n1Cc1ccccc1F
8: Cc1noc(C(=O)Nc2ccc3c(c2)OCO3)c1Cl

Compound	1	2	3	4	5	6	7	8
CtBP-E1A blk	-0.2	-4.2	5.5	2.4	-29.7	-1.9	nt	-4.4
PINK1 modulator	0.4%	4.2%	7.3%	0.3%	-1.0%	2.0%	-0.2%	1.6%
Six1-Eya2 blk	-6.0	-18.5	8.8	-0.2	-21.8	0.0	nt	2.0
D2 agonist	-2.1	1.1	-2.4	-3.9	-1.0	1.4	nt	-1.4
TRPML1 agonist	1.9	0.9	1.1	0.4	-0.6	-0.8	-0.9	-0.8
TRPML1 blocker	29.6	1.6	5.3	4.8	-1.9	7.9	1.2	7.1

# An excerpt of these results, field by field:
2: COc1cc2c(cc1OC)C1(CCCC1)C(N)=C2C#N
  CtBP-E1A blk: -4.2; PINK1 modulator: 4.2%; Six1-Eya2 blk: -18.5; D2 agonist: 1.1; TRPML1 agonist: 0.9; TRPML1 blocker: 1.6

6: O=C(COc1ccc(-c2nnco2)cc1)NC1CCCc2ccccc21 (configuration not stated)
  CtBP-E1A blk: -1.9; PINK1 modulator: 2.0%; Six1-Eya2 blk: 0.0; D2 agonist: 1.4; TRPML1 agonist: -0.8; TRPML1 blocker: 7.9

7: Cc1c2cnn(CC(=O)NCc3ccc(F)cc3)c(=O)c2c(C)n1Cc1ccccc1F
  CtBP-E1A blk: nt; PINK1 modulator: -0.2%; Six1-Eya2 blk: nt; D2 agonist: nt; TRPML1 agonist: -0.9; TRPML1 blocker: 1.2

# (cont.)
9: c1ccc(-c2cc(-c3nn4c(-c5ccco5)nnc4s3)c3ccccc3n2)cc1
10: Cn1c(SCC(=O)NC2CCCC2)nnc1-c1cccs1
11: Cn1c(SCC(=O)NCCc2ccccc2)ncc(C(=O)Nc2ccccc2)c1=O
12: COC(C/C=C/[C@H](O)COCc1ccccc1)OC
13: CCOc1ccc(-c2cc(CCCC(=O)NCCc3ccc(OC)c(OC)c3OC)no2)cc1
14: CN(C)S(=O)(=O)c1ccc(NC(=O)CN2CCOCC2)cc1
15: CC(C)(C)N1C(=O)[C@H]2[C@@H](c3ccc(Br)cc3)N3C(=O)N(c4cccc(Cl)c4)C(=O)[C@@]3(C)[C@H]2C1=O
16: O=C(CCCn1nnc2ccccc2c1=O)N[C@@H](Cc1ccccc1)C(=O)O

Compound	9	10	11	12	13	14	15	16
CtBP-E1A blk	?	1.5	6.9	10.4	-1.1	5.9	1.8	13.6
PINK1 modulator	22.8%[38.3 µM]	-1.9%	5.1%	0.6%	6.6%[38.3 µM]	-0.7%	0.5%	0.4%
Six1-Eya2 blk	?	-3.1	0.3	13.2	-0.8	2.5	0.6	9.5
D2 agonist	-0.3	-2.6	-3.9	-1.3	-2.5	-4.1	-1.6	0.0
TRPML1 agonist	0.0	0.0	0.6	-0.7	3.7	-0.3	0.7	-0.1
TRPML1 blocker	-6.8	-18.2	-0.3	-5.3	2.0	2.1	-2.9	4.5

17: CCC(=O)c1ccc(N2CCN(C(=O)COc3ccc(F)cc3)CC2)c(F)c1
18: Cc1ccccc1OCC(=O)OC(C)C(=O)NC1CCCC1 (configuration not stated)
19: O=C(O)CC1Sc2nnc(COc3ccc(Cl)cc3)n2N=C1c1ccccc1 (configuration not stated)
20: CN(CC(=O)Nc1ccc(Cl)c(C(F)(F)F)c1)C(=O)c1cc(=O)c2ccccc2o1
21: CC1CCc2cc(F)ccc2N1C(=O)C12CCC(C)(C(=O)O1)C2(C)C (configuration not stated)
22: Cn1c(CN2CCCC2)nc2cc(NS(=O)(=O)c3ccccc3)ccc21
23: CCC(=O)Oc1ccc2c(C)c(Cl)c(=O)oc2c1
24: Cc1ccc(-c2nc(C(=O)O)cs2)cc1

Compound	17	18	19	20	21	22	23	24
CtBP-E1A blk	-1.0	nt	3.4	nt	0.0	8.4	-2.7	2.2
PINK1 modulator	-1.1%	1.2%	0.8%	4.3%	0.0%	0.5%[38.3 µM]	1.0%	1.6%
Six1-Eya2 blk	0.5	1.9	-0.5	-0.1	7.3	0.5	-3.7	2.1
D2 agonist	-1.4	-1.4	0.3	-3.6	-3.2	-3.4	1.6	2.3
TRPML1 agonist	0.3	-0.8	1.4	0.1	2.2	0.9	1.2	0.7
TRPML1 blocker	25.9	-8.9	-11.5	3.3	24.0	18.3	1.5	-5.4

25: COc1ccc(CCC(=O)N/N=C/c2ccc3c(c2)OCO3)cc1
26: CN(C)S(=O)(=O)c1ccc(-c2csnn2)s1
27: COCCN1CCC(CNCc2cn(-c3cc(C)ccc3C)nc2-c2ccccc2)C1 (configuration not stated)
28: CSc1nc(C)c2c(n1)N(c1ccc(F)cc1)CC2
29: O=C(NCCS(=O)(=O)c1ccc(Br)cc1)c1ccc(Cl)cc1
30: CN1CCC(N(C)S(=O)(=O)c2ccc(NC(=O)COc3ccc(F)cc3)cc2)CC1
31: CCNC(=O)C1(C)CCCN1C(=O)c1cnc2ccccc2n1 (configuration not stated)
32: Cc1ccsc1CN(C)C(=O)C(NC(=O)c1cccc(S(=O)(=O)N2CCOCC2)c1)C(C)C (configuration not stated)

Compound	25	26	27	28	29	30	31	32
CtBP-E1A blk	8.8	4.3	nt	-1.0	-12.2	-4.2	4.0	-0.3
PINK1 modulator	0.1%	0.3%	-0.9%	4.8%	0.7%	-5.1%	0.2%	3.1%
Six1-Eya2 blk	-14.6	5.5	-10.6	-3.6	-5.4	-1.0	27.6	-0.8
D2 agonist	-2.9	-0.3	0.0	-1.0	-9.7	-5.2	-5.7	-0.8
TRPML1 agonist	0.1	1.1	-0.1	-1.6	0.7	-0.1	-0.5	0.3
TRPML1 blocker	-2.7	9.5	16.6	-15.6	3.4	-5.3	nt	5.3

33: COc1ccc(NC(=O)CSc2nnc(NC(=O)c3ccccc3C(=O)O)s2)cc1
34: COc1ccc(N2CCN(C(=S)NC(=O)c3cccs3)CC2)c([N+](=O)[O-])c1
35: COc1ccc(S(=O)(=O)c2nnn(-c3cc(Cl)c(OC)cc3OC)c2C)cc1
36: COc1ccc(/C=C/C(=O)Nc2ccc(C(N)=O)cc2)cc1OC
37: Cc1cc(C(=O)COc2cccc3cccnc23)c(C)n1C
38: COc1ccc(OC)c(NC(=O)CCN2CCN(c3ccccc3)CC2)c1
39: CCOc1ccccc1N1C(=O)CN(Cc2ccc(OC)c(OC)c2)C1=S
40: C=CCn1c(C(C)NC(=O)C(C)(C)C)nc2ccccc21 (configuration not stated)

Compound	33	34	35	36	37	38	39	40
CtBP-E1A blk	-11.6	-14.5	nt	0.0	?	-17.8	nt	20.9
PINK1 modulator	1.2%	1.3%	1.1%	7.6%	16.5%	4.0%[38.3 µM]	2.7%	-2.7%[38.3 µM]
Six1-Eya2 blk	-27.9	-12.2	nt	29.2	?	-13.7	-5.6	1.7
D2 agonist	-3.7	-1.7	nt	-19.3	1.1	?	4.7	0.6
TRPML1 agonist	-0.7	2.0	7.4	0.3	3.6	0.5	0.7	0.0
TRPML1 blocker	-4.8	-0.1	-2.1	5.5	-1.8	-1.0	5.8	-2.0

41: O=C(Nc1cccc2ccccc12)/C(=C/c1cccc([N+](=O)[O-])c1)NC(=O)c1cccs1
42: COc1ccc(OC)c(NC(=O)C2CCN(S(C)(=O)=O)CC2)c1
43: COc1ccccc1CNC(=O)CCNS(=O)(=O)c1cc(Br)cnc1N
44: Cc1cccc(NC(=O)C2CC(O)CN2C(=O)Oc2ccccc2)c1 (configuration not stated)
45: COc1ccccc1C1CCN(C(=O)c2ccc(Cl)cc2)CC1
46: Nc1nnnn1-c1cccc([N+](=O)[O-])c1
47: Cc1cc(C)cc(NC(=O)Cn2c(C(F)(F)F)nc3ccccc32)c1
48: CCC(C)NC(=S)Nc1ccc2nc(N3CCN(CC)CC3)cc(C)c2c1 (configuration not stated)

Compound	41	42	43	44	45	46	47	48
CtBP-E1A blk	-18.0	0.8	2.4	-13.2	1.1	8.0	nt	-0.8
PINK1 modulator	-2.3%	nt	-0.5%	-0.3%	-0.1%	0.0%	8.5%	4.8%
Six1-Eya2 blk	-18.5	2.7	2.7	4.3	2.3	2.2	nt	-3.1
D2 agonist	-2.3	0.2	5.2	-0.3	-4.4	3.5	nt	-6.2
TRPML1 agonist	0.2	0.8	0.3	-0.6	2.8	-0.5	2.9	-0.6
TRPML1 blocker	6.2	-5.2	10.4	-3.8	-20.9	-5.2	-12.7	3.6

49: Cc1cc(N2CCCC2=O)ccc1S(=O)(=O)NC1CCCCC1
50: N#Cc1ccc(S(=O)(=O)N2CCCCC2c2cc(C(=O)Nc3cccc4c3CCCC4)no2)cc1 (configuration not stated)
51: COc1ccc(NS(=O)(=O)c2cccc(C(=O)N/N=C/c3c(F)c(F)c(F)c(F)c3F)c2)cc1
52: COc1ccc(NC(=O)CCC2CCCCC2)cc1S(=O)(=O)N1CCCCC1
53: COc1ccc(C(=O)C[n+]2cc(Br)cc3ccccc32)cc1[N+](=O)[O-]
54: CCOC(=O)C(Cc1c[nH]c2ccccc12)NC(=O)COc1ccc(Cl)cc1 (configuration not stated)
55: COCCNC(=O)Cc1c(C)c2cc3c(cc2oc1=O)OC(C)(C)CC3
56: CCOc1ccc(C(=O)CCN2CCCCC2)cc1
57: COc1cccc(NC(=O)CSc2nnc(-c3cccc(OC)c3)o2)c1
58: CC(C)c1ccc(NC(=O)Cn2nnc(C(=O)NCc3ccco3)c2N)cc1

Compound	49	50	51	52	53	54	55	56	57	58
CtBP-E1A blk	5.0	4.4	2.1	3.0	nt	nt	-0.3	4.4	nt	-5.3
PINK1 modulator	2.2%	0.8%	5.5%	-3.0%	7.3%	4.0%	0.8%	0.9%	-0.1%	4.6%
Six1-Eya2 blk	7.5	2.0	-0.6	7.8	0.9	nt	-3.4	-3.9	nt	0.0
D2 agonist	-3.8	1.5	10.5	0.0	-0.3	nt	-1.4	-4.5	nt	5.0
TRPML1 agonist	0.7	0.0	3.8	0.8	1.3	0.0	-0.1	1.7	2.2	-0.4
TRPML1 blocker	-5.6	nt	4.6	7.4	24.5	-0.1	20.5	-12.8	7.1	10.8

# Entries shown so far that contain a CF3 group (2):
20: CN(CC(=O)Nc1ccc(Cl)c(C(F)(F)F)c1)C(=O)c1cc(=O)c2ccccc2o1
47: Cc1cc(C)cc(NC(=O)Cn2c(C(F)(F)F)nc3ccccc32)c1

Compound	20	47
CtBP-E1A blk	nt	nt
PINK1 modulator	4.3%	8.5%
Six1-Eya2 blk	-0.1	nt
D2 agonist	-3.6	nt
TRPML1 agonist	0.1	2.9
TRPML1 blocker	3.3	-12.7

# Screening results (PubChem)
